Screens: PubChem BioAssay, Johns Hopkins Ion Channel Center
KCNQ2 enhance = potentiators of rat KCNQ2 potassium channel; CHO-K1 KCNQ2, FluxOR thallium flux fluorescence; stronger effect = higher value; AID 2239; B-score at 10 µM; actives 0.54% (n = 310,000); O88943;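 active = fluorescence ratio B-score at least 3 SD of library B-scores, with initial fluorescence B-score within 3 SD, cut at about 5.3 in these data; same plate scores as AID 2156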;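 also: B-score of peak minus minimum over baseline fluorescence ratio after K+ and Tl+ stimulus; positive B-score means potentiation of KCNQ2 with more thallium influx and brighter signal; only the inactives scoring about 0 or higher are listed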
Target sequence (O88943 whole entry, looked up): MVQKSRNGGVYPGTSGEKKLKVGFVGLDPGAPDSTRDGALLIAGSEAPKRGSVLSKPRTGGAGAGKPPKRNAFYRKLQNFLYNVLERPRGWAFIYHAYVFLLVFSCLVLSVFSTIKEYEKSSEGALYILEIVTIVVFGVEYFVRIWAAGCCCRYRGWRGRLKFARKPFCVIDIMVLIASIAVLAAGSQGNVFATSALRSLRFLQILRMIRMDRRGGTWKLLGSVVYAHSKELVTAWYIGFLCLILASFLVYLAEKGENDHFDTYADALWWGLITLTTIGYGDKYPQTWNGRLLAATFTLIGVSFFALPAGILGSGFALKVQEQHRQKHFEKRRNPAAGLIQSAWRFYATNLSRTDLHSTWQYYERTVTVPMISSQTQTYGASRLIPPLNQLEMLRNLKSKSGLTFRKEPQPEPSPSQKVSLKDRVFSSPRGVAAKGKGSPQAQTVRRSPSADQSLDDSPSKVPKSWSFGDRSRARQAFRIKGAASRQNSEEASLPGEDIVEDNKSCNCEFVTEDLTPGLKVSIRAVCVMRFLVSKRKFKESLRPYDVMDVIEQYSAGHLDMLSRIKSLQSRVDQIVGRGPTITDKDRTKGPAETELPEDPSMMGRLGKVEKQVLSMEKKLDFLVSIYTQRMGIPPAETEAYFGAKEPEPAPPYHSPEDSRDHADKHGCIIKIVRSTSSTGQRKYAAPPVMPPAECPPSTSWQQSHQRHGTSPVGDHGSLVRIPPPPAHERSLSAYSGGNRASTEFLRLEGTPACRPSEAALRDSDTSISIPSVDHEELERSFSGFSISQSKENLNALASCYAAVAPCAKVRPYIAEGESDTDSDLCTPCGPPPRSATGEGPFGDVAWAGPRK
KCNQ2 enhance baseline = second read-out of KCNQ2 enhance, no call of its own (marks repeat the call); B-score; compound at 10 µM; measured here: initial fluorescence intensity artifact check;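 brightness before thallium and not channel activity; 0 = typical well and far values either way flag optical interference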
Starred values were filed as active, the others as inactive. Only part of the results is shown (hit frequency here may not be typical).

KCNQ2 enhance baseline | KCNQ2 enhance | structure
0.33 | 0.17 | Cc1ccc(C2=[N+]([O-])C(C)N(O)C2(C)C)o1 (stereo not drawn)
-1.1 | 0.9 | COC(=O)CN1C2=NCCCN2c2ccccc21
0.15 | 1.2 | CCN(CC)C1CCN(C(=O)c2ccc(OC3CCN(Cc4ccccn4)CC3)cc2)C1 (stereo not drawn)
0.48 | 0.47 | COc1cc(C(=O)NCc2ccco2)cc(OC)c1OC
0.07 | 0.08 | COc1ccc(C2OC(=O)CC2C(=O)NC2CCCCCC2)cc1OC (stereo not drawn)
1.3 | 0.09 | CN(C(=O)CSc1n[nH]c(-c2cccs2)n1)C1CCS(=O)(=O)C1 (stereo not drawn)
0.02 | 0.08 | CC(C)NC(=O)c1ccccc1N(Cc1ccccc1)S(C)(=O)=O
-0.01 | 0.83 | CCCOc1ccc(C(=O)NNC(=S)NC(C)=O)cc1
-0.89 | 0.66 | Cc1nc(-c2ccc(F)cc2)c(CC(=O)N2CCN(S(=O)(=O)c3cccc(Cl)c3)CC2)s1
0.36 | 0.39 | COc1ccc(/C(=N/Nc2ncnc3ccccc23)C(=O)O)cc1
-0.31 | 1.2 | COc1cc(/C=N/NC(=O)CC2(C)OCCCO2)ccc1OCc1ccccc1
-0.64 | 0.82 | COc1cc(OC)c(OC)cc1CN1CCN(C(=O)CC(C)C)CC1
-1.6 | 1.1 | Cc1cc(C)c(O)c(-c2cc(C(=O)NCCc3ccc(S(N)(=O)=O)cc3)[nH]n2)c1
0.65 | 0.07 | COC(=O)c1sccc1NC(=S)Nc1cccc(F)c1
0.96 | 0.02 | CCn1c(-c2ccoc2C)n[nH]c1=S
1.1 | 2 | CCNC(=O)CC1C(=O)N(c2ccccc2)C(=O)N1CCOC (stereo not drawn)
0.85 | 0.72 | COc1ccc(C(=O)NNC(=O)c2ccc(S(=O)(=O)N3CCCCC3)cc2)cc1
1.9 | 0.98 | Cn1c2ccccc2c2cnn(CC(=O)NCCCN3CCN(c4ccccc4F)CC3)c(=O)c21
0.2 | 1.6 | Cc1cc(NC(=O)CSc2ccc(-c3ccc4c(c3)OCO4)nn2)no1
1.2 | 0.09 | COCCOC(=O)c1c(C)n(C)c2ccc(OC(=O)c3cccs3)cc12
-0.52 | 0.59 | COC(=O)c1cc(NS(=O)(=O)c2ccc3c(c2)CCC(=O)N3)cc(C(=O)OC)c1
0.02 | 0.47 | O=C(NCc1ccc(Cl)cc1)c1cc(S(=O)(=O)N2CCCCC2)c[nH]1
-0.23 | 0.06 | COc1ccc(N2C(=O)C(CN3CCCCC3)C2c2ccccc2)cc1 (stereo not drawn)
0.01 | 0.52 | O=C(NCCS(=O)(=O)N1CCN(c2ccccc2)CC1)c1ccc(Br)o1

By substructure, the entries above with fluorine.
KCNQ2 enhance baseline | KCNQ2 enhance | structure
-0.89 | 0.66 | Cc1nc(-c2ccc(F)cc2)c(CC(=O)N2CCN(S(=O)(=O)c3cccc(Cl)c3)CC2)s1
0.65 | 0.07 | COC(=O)c1sccc1NC(=S)Nc1cccc(F)c1
1.9 | 0.98 | Cn1c2ccccc2c2cnn(CC(=O)NCCCN3CCN(c4ccccc4F)CC3)c(=O)c21

Later entries.
KCNQ2 enhance baseline | KCNQ2 enhance | structure
-0.21 | 1.8 | CCOC(=O)c1sc2nc(C3CC3)cc(-c3ccc(F)cc3)c2c1N
-1.3 | 0.92 | CCOc1ccccc1N1CC(C(=O)Nc2ccc3c(c2)OCCO3)CC1=O (stereo not drawn)
0.47 | 0.72 | O=C(NCc1n[nH]c(=S)n1-c1ccccc1)c1cccs1
0.69 | 1.1 | COCCn1nnnc1C(c1cc2cccc(C)c2[nH]c1=O)N1CCN(c2ccccc2F)CC1 (stereo not drawn)
-0.04 | 0.1 | COC(=O)c1cc(OC)c(OC)cc1NC(=O)c1cnccn1
2 | 0.05 | O=C(COC(=O)c1ccc(O)cc1O)Nc1ncc(Cl)cc1Cl
-1.3 | 1.3 | COc1ccc([N+](=O)[O-])cc1NC(=O)COC(=O)/C=C/c1ccco1
-0.44 | 0.13 | Cn1c(=O)c2c(ncn2CC(=O)OCC(=O)c2ccc(Cl)cc2)n(C)c1=O
1 | 1 | O=C(COC(=O)C1(c2ccccc2)CC1)NNC(=O)c1ccccc1F
0.17 | 0.38 | COc1cc(/C=N/NC(=O)C(N)=O)cc(OC)c1O
-0.55 | 1.5 | O=C(CSc1ccc2ccccc2n1)NCCC1=CCCCC1
0.14 | 1.9 | O=C(CSc1nnc(-c2ccco2)n1-c1ccccc1)N1CCN(C(=O)c2ccco2)CC1
0.19 | 0.02 | CCc1c(C)nc(N)n2c(SCC(=O)N3CCCC(C)C3)nnc12 (stereo not drawn)
0.42 | 0.45 | COC(=O)c1[nH]c(C)c(/C(O)=C2\C(=O)C(=O)N(CCN(C)C)C2c2cccs2)c1C (stereo not drawn)
1.3 | 0.53 | Cc1noc(C)c1S(=O)(=O)Nc1ccc(C(=O)O)cc1
0.44* | 17* | Cc1ccc(Nc2cc(C)nn2-c2nc(C)cc(=O)[nH]2)cc1
-1 | 0.25 | CCOC(=O)CNC(=O)CSc1nc(Cc2cccs2)nc2ccccc12
1.1 | 0.55 | O=C(Nc1cccs1)Nc1c(F)cc(F)cc1Br
-2.5 | 1.1 | COC(=O)c1ccn(Cc2ccccc2Cl)n1
-1.4 | 4.3 | Cc1ccccc1NC(=O)COC(=O)C1(C)CC1(Cl)Cl (stereo not drawn)
0.5 | 1.3 | CCOc1ccc(NC(=O)Nc2ccc(NC(C)=O)cc2)cc1
0.64 | 0.55 | CNc1ncc(C(=O)c2ccc(Br)cc2)s1
0.72 | 0.84 | Cc1cc(NC(=O)NC(C(F)(F)F)C(F)(F)F)no1
0.6 | 0.14 | Cc1cn(Cc2ccccc2)c(=O)[nH]c1=O
0.04 | 1.7 | Cc1cc(-c2csc(NC(=O)c3ccc(=O)n(C)n3)n2)c(C)n1CC1CCCO1 (stereo not drawn)
0.32 | 0.06 | COC(=O)Cc1ccc(NC(=S)NCc2ccc(F)cc2)cc1
0.24 | 0.73 | O=C(CNC(=O)c1ccc(Cl)cc1)OCC(=O)c1ccccc1
-0.03 | 0.42 | CC(CC(=O)N1CCN(S(=O)(=O)c2ccc(Cl)cc2)CC1)n1cncn1 (stereo not drawn)
0.17 | 0.4 | CC1(C)OCC(COC(=O)Nc2cccnc2)([N+](=O)[O-])CO1
-0.28 | 0.95 | Nc1ccc(Cl)c(-c2nc3ncccc3o2)c1
2 | 0.27 | CC(=O)c1ccc(NS(=O)(=O)c2cc(-c3cnc(C4CC4)o3)ccc2C)cc1
-0.85 | 1 | Cc1ccc(S(=O)(=O)n2cnc(C)c2)cc1
2.3 | 0.3 | O=C(CCN1C(=O)COc2ccccc21)NCCN1CCN(c2cccc(Cl)c2)CC1
0.11 | 0.95 | Cc1nn(-c2ccccc2)c(Cl)c1/C=N\NC(=O)c1cncc(Br)c1
-0.84 | 0.08 | O=C(NCCc1ccc(Cl)cc1)c1ccc(OCC2CCCO2)cc1 (stereo not drawn)
-1.2 | 0.27 | Nc1cc(N)cc(C(=O)Nc2ccc3c(c2)C(=O)NC3=O)c1
0.1 | 0.09 | COc1cccc(C(=O)Nc2ccc3[nH]ncc3c2)c1OC
-1.7 | 1.9 | CC(=O)c1ccc(NC(=O)CSc2nccn2C)cc1
-0.29 | 0.52 | CCCN1CCc2c(sc(NC(=O)CCS(=O)(=O)c3ccccc3)c2C(=O)OC)C1
1.5 | 1.2 | COc1ccccc1Nc1nc(NCc2ccco2)c2ccccc2n1
1.1 | 2.2 | O=C(NCc1ccco1)c1csc2c1CCCCC2
-0.8 | 0.43 | C=CCn1c(SCC(=O)N2N=C(c3ccco3)CC2c2ccco2)nnc1-c1ccncc1 (stereo not drawn)
-0.04 | 0.11 | O=C(Nc1ccc(S(=O)(=O)N2CCOCC2)cc1)c1ccc(Cl)cc1
0.01 | 1.6 | CC(=O)N1c2ccc(S(=O)(=O)N3CCC(C(=O)NC(C)c4ccccc4)CC3)cc2CC1C (stereo not drawn)
-0.04 | 0.1 | CCN1CCC(NC(=O)Nc2ccc(F)cc2F)CC1
2.1 | 0.21 | Cc1ccccc1NC(=S)NC(NC(=O)c1ccccc1C)C(Cl)(Cl)Cl (stereo not drawn)
0.07 | 3 | COc1ccccc1Nc1nc(-c2c(C)nc3ncccn23)cs1
-0.33 | 0.47 | Cc1ccc2c(c1)N(C(=O)CCC(=O)NC1CCN(Cc3ccccc3)CC1)CC(C)O2 (stereo not drawn)

Reformatted: results already given
Sequence of screens: KCNQ2 enhance baseline, KCNQ2 enhance
> Cc1ccc2c(c1)N(C(=O)CCC(=O)NC1CCN(Cc3ccccc3)CC1)CC(C)O2 (stereo not drawn)
→ -0.33, 0.47
> CC(=O)c1ccc(NC(=O)CSc2nccn2C)cc1
→ -1.7, 1.9
> CCN1CCC(NC(=O)Nc2ccc(F)cc2F)CC1
→ -0.04, 0.1
> O=C(NCc1ccco1)c1csc2c1CCCCC2
→ 1.1, 2.2
> O=C(Nc1ccc(S(=O)(=O)N2CCOCC2)cc1)c1ccc(Cl)cc1
→ -0.04, 0.11
> C=CCn1c(SCC(=O)N2N=C(c3ccco3)CC2c2ccco2)nnc1-c1ccncc1 (stereo not drawn)
→ -0.8, 0.43

The listing continues:
KCNQ2 enhance baseline | KCNQ2 enhance | structure
0.56 | 0.82 | Cc1nc(SCc2ccccc2F)c2cnn(-c3ccccc3)c2n1
0.34 | 0.47 | N#CC(=C1CCCC1)c1nc(-c2ccccc2)cs1
-1.2 | 0.66 | Cn1c(=O)c2c(ncn2CC(=O)N/N=C/C=C/c2ccco2)n(C)c1=O
-2.1 | 0.94 | CCOc1ccc(CN(C)C(=O)c2cccnc2OCC)cc1OC
0.61 | 0.87 | CCCCN(CC)CCCNC(=O)Cn1nc(Cc2cccnc2)c2ccccc2c1=O
-0.04 | 0.1 | COc1ccc(OCC(=O)Nc2ccc(N3CCN(C(=O)c4ccccc4C)CC3)cc2)cc1
0.36 | 0.54 | Cc1[nH]c(C)c(S(=O)(=O)Nc2cccc(Cl)c2C)c1C(=O)N1CCCC1
0.4 | 0.64 | O=C(Cc1ccccc1)NCC(=O)Nc1cc(Cl)ccc1Cl
0.9 | 0.03 | O=C(Nc1ccc(S(=O)(=O)Nc2cnc3ccccc3n2)cc1)c1ccc([N+](=O)[O-])cc1Cl
0.35 | 1.5 | COc1ccc(OC)c(S(=O)(=O)Nc2ccccc2F)c1
-1 | 0.9 | CC1CC(NS(=O)(=O)c2cccs2)CC(C)(C)C1 (stereo not drawn)
-1.3 | 0.1 | CCC(c1c(C)[nH]oc1=O)c1c(C)[nH]oc1=O
-0.75 | 0.02 | CCC(Sc1ccc2nnc(-c3ccc(OC)c(OC)c3)n2n1)C(=O)O (stereo not drawn)
2 | 0.56 | O=C(CNC(=O)c1ccc(Br)cc1)NCc1cccnc1
-0.11 | 0.28 | CCS(=O)(=O)N1CCN(c2ccc(C(=O)N3CCOCC3)cc2[N+](=O)[O-])CC1
-0.99 | 0.06 | CCOc1cc(C(=O)Nc2cc(=O)n(C)c(=O)n2C)cc(OCC)c1OCC
-2.9 | 0.65 | CCC1Oc2ccccc2N(CC(=O)NCCCN2CCN(Cc3ccccc3)CC2)C1=O (stereo not drawn)
-0.14 | 2.3 | COCCNC(=O)C(OC(=O)CC1Sc2ccccc2NC1=O)c1ccccc1 (stereo not drawn)
-1.1 | 2.1 | CC(=O)c1cccc(NC(=O)C23CC4CC(C2)CC(n2cncn2)(C4)C3)c1
-0.97 | 0.69 | Cn1cc(CCC(=O)N2CCCC(N3CCN(c4ccccc4F)CC3)C2)cn1 (stereo not drawn)
-0.11 | 1.2 | COc1ccc2nc(SCC(=O)Nc3nonc3C)[nH]c2c1
-2.5 | 1.8 | C=CCN1C=CC=C/C1=C1\SC(=S)N(C)C1=O
0.03 | 0.05 | CCCC(=O)Nc1ccc(C(=O)NCC(=O)OCC)cc1
-0.74 | 0.11 | COc1cccc(C(C(=O)NC2CCCC2)N(CCC(C)C)C(=O)CCC(=O)Nc2cc(C)on2)c1 (stereo not drawn)
-1.1 | 0.2 | COC(=O)CSc1nc(-c2cccs2)ccc1C#N
0.36 | 0.01 | COc1cccc(-c2nc(CS(=O)(=O)CC(=O)NCCCN3CCN(C)CC3)c(C)o2)c1
0.04 | 1.8 | CCOC(=O)COc1ccc2c(c1)C(=O)CC1(CCCCC1)O2
0.87 | 0.41 | CCOc1cccnc1Sc1ccccc1
-0.1 | 0.49 | CN(C)CCC(c1ccc(Br)cc1)c1ccccn1 (stereo not drawn)
1.6 | 0.21 | O=C(COC(=O)c1c2c(nc3ccccc13)/C(=C\c1cccs1)CCC2)Nc1ccccc1Cl
1.4 | 1.1 | Cc1ccc(-c2nnn(CC(=O)N(CC(=O)NC3CCCCC3)c3ccc(F)c(Cl)c3)n2)o1
-1.1 | 0.09 | Cc1cccc(CNc2ncc(-c3cccc([N+](=O)[O-])c3)n2C)c1
0.26 | 0.28 | CN1CCN(c2nc3c(c(=O)n(C)c(=O)n3C)n2Cc2cccc(Br)c2)CC1
0.01 | 0.09 | COc1ccc(Cl)cc1C(=O)OCC(=O)N(CC(C)C)c1c(N)n(Cc2ccccc2)c(=O)[nH]c1=O
-0.35 | 0.57 | Cc1ccc(-n2c(SCc3nc4ccccc4[nH]3)nnc2-c2ccncc2)cc1
-0.46 | 0.55 | CCNC(=O)NC1(C(=O)N2CCC(Cc3ccccc3)CC2)CCCCC1
-0.55 | 1.5 | CC(C)(C)NC(=S)NCc1ccc2c(c1)OCO2
-1 | 0.49 | COc1ccc(S(=O)(=O)N2CCSC2c2ccccc2)cc1 (stereo not drawn)
0.23 | 1 | Cc1cc(C)n2c(SCC(=O)NCc3ccco3)nnc2n1
0.43 | 2 | CCOc1ncccc1C(=O)OCC(=O)Nc1c(C)cccc1C
0.43 | 1.1 | CCn1nc(C)c(NC(=O)/C=C/c2cnn(C)c2C)c1C
0.9 | 0.14 | CCS(=O)(=O)N1Cc2ccccc2CC1C(=O)Nc1nccs1 (stereo not drawn)
-0.46 | 1.6 | C=CCNc1nnc(Cl)c2ccccc12
